GLA inh pH 4.5: blocks human alpha-galactosidase A at pH 4.5. P06280. purified enzyme, 4-MU-alpha-Gal fluorescence, pH 4.5. activity change, negative = inhibition, % at 105 µM. 230,000 tested, under 10 active; inconclusive = small, poorly fitted or top-dose-only inhibition, or a rising curve; inactive = flat fitted curve, though single readings scatter; no compound was filed as active;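 also: 0% = full activity with enzyme and -100% = basal without enzyme; dose as in the result columns while the protocol names 77 µM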
Target sequence (P06280 whole entry, looked up): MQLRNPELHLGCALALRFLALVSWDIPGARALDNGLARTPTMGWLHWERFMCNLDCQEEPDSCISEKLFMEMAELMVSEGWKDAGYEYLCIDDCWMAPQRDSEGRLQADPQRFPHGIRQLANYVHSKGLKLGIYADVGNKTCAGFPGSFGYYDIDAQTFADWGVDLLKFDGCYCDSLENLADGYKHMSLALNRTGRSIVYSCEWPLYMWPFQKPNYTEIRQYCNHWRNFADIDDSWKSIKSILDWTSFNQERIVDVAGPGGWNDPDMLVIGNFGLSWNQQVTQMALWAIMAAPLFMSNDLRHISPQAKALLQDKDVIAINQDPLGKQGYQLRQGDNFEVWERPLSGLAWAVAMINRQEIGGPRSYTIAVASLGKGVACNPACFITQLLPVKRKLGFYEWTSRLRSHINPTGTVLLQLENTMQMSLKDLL
Rango complex inh: inhibitors of Rango-importin beta complex formation | Rango CFP/YFP FRET sensor + importin beta, 45 min | Potency, µM (highest dose often 92.2 µM), for inactives: at the top dose inhibition of complex formation | 340,000 compounds, 0.031% hits; active = rising FRET ratio curve, often small or poorly fitted; inconclusive = mostly compound fluorescence or quenching in the first reads; inactive = flat curves in all reads;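 also: potency is read from the fitted curve at half-maximal effect; 0% = DMSO wells and 100% = buffer wells lacking importin beta; nearly all actives have a fitted effect of over 15% in size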
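Inhibition scored from the CFP 486 nm/YFP 530 nm FRET ratio 45 min after adding 0.125 microM importin beta to 50 nM Rango biosensor preincubated 5 min with compound (room temperature, PBS with DTT, Tween-20, BSA). No-importin wells as positive control.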
Rango release inh: inhibitors of RanGTP-induced Rango-importin beta complex dissociation | O95149+P62826 | Biochemical FRET Rango-importin beta, RanGTP-induced dissociation | Potency, µM (titrated, usually from 46.1 µM), inactives show top-dose activity change, negative = inhibition | 340,000 compounds, 0.071% hits | AID 540253; active means falling FRET ratio curve, often poorly fitted, with flat reads before Ran was added; inconclusive means other falling curves, or compound fluorescence or quenching; inactive means flat or rising ratio curve;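 also: potency is read from the fitted curve at half-maximal effect; % of control where 0% means no effect; nearly all actives have a fitted effect of over 45% in size; -100% = wells without RanGTP and RCC1; the record marks most hits as doubtful in a second field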
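Rango/importin beta premix (0.1/0.25 uM final), PBS + 1 mM DTT + 0.02% Tween-20 + 0.1% BSA; cpd 5 min RT; FRET pre-read; + RanGTP-RCC1 (0.6 uM Ran, 2 mM GTP, 0.2 uM RCC1); 45 min RT; FRET post-read, ex 430, em 486/530 nm.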
miR-21 reporter: raises the signal of a miR-21 reporter. HeLa miR-21 FLuc reporter, luciferase, 48 h. Potency, µM (highest dose often 38.3 µM), without a hit: top-dose reporter change, positive = more light. 340,000 tested, under 10 active. AID 2288; active = well fitted rising curve with a large enough effect; inconclusive = small, poorly fitted or top-dose-only effect; inactive = no such curve, though single readings can be large or run the other way;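 also: % of control where 0% means no effect; miR-21 action dims this reporter so a rising signal means less miR-21 action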
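Using DMEM plus 10% FBS, HeLa miR-21-FLuc cells are incubated with test compounds (final up to about 40uM) for 48 hours; firefly luciferase signal is then imaged following reagent-mediated lysis.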
Starred values were filed as active, the others as inactive; ? = inconclusive; . = no result given; & = joins results of further samples. These rows are one share of the data, so the mix of outcomes need not match the whole.

SMILES	GLA inh pH 4.5	Rango complex inh	Rango release inh	miR-21 reporter
COc1ccc(CCNC(=O)C(C(=O)c2ccccc2)n2cc(Cl)ccc2=O)cc1OC (configuration not stated)	3	2.4%	16%	-5%
O=C(O)CSc1cnc2ccccc2n1	-1	-1.8%	0%	0%
COc1ccc2c(COC(=O)[C@H](C)NS(=O)(=O)c3ccccc3F)cc(=O)oc2c1	.	-0.1%	-10%	.
Cc1ccccc1CSc1nnc(-c2cccnc2)n1N	-2	-3.0%	-1%	-21%
Cc1ccc(-c2cn(-c3ccccc3F)c(=S)[nH]2)cc1	.	1.9%	-12%	-44%
O=C(Nc1ccc(Cl)c(Cl)c1)Nc1ccccn1	.	0.9%	3%	-55%
CS(=O)(=O)N(Cc1cccc(CN(C(C(=O)O)c2ccccc2)S(C)(=O)=O)c1)C(C(=O)O)c1ccccc1 (configuration not stated)	.	0.5%	0%	-2%
O=C1CCCC(O)=C1N=Nc1cccc(S(=O)(=O)N2CCOCC2)c1	-17	-0.1%	2%	4%
CCCCCn1c(=O)[nH]c2cc(C(=O)NCCCN3CCCCC3)ccc2c1=O	-18	5.4%	-3%	0%
Cc1ccccc1N1CCN(c2ccccc2NC(=O)/C=C\C(=O)O)CC1	.	0.0%	4%	.
COc1cccc(Nc2nnc(Cc3cccnc3)c3ccccc23)c1	.	5.3%	1%	-9%
Cc1cc(N2C(=O)C(O)=C(C(=O)c3ccco3)C2c2cccnc2)no1 (configuration not stated)	-6	.	.	-2%
COC(=O)c1cn(-c2nc(C)c3c(n2)CCC3)nn1	8	-3.9%	7%	-16%
COc1cc(C2=NOC(C(=O)Nc3ccc4c(c3)OCO4)C2)cc(OC)c1OC (configuration not stated)	.	0.1%	-13%	-18%
COc1ccc(N2C(=O)CC2(/C=C/c2ccccc2OC)C(=O)NC2CCCC2)cc1 (configuration not stated)	-6	-2.6%	6%	10%
CCc1ccc(CNCCNC(=O)c2ccco2)cc1	.	?	?	.
O=C(NC(=S)Nc1ccccn1)c1cccc([N+](=O)[O-])c1	-4	-1.2%	-3%	-57%
O=C(Nc1nc2ccc(S(=O)(=O)N3CCCC3)cc2s1)C1CCCO1 (configuration not stated)	-9	0.8%	-6%	-8%
Cc1cc2c(cc1S(=O)(=O)NCCc1ccc(Cl)cc1)OCC(=O)N2	.	-1.2%	-27%	11%
COc1ccc(NC(=O)CSc2ccc3nnc(-c4ccccn4)n3n2)cc1OC	.	-0.1%	-21%	-3%
CC1(C)CC(=O)C2=C(C1)c1c(ccc3ccccc13)NC2c1ccc(OCC(=O)O)cc1 (configuration not stated)	.	?	-19%	4%
CN(CCc1ccccc1)C(=O)c1ccc(NC(=O)Cc2ccc(NC(=O)C3CCN(S(=O)(=O)c4cccc([N+](=O)[O-])c4)CC3)cc2)cc1	.	4.6%	-22%	.
CCN(CC(=O)Nc1ccc(NC(C)=O)cc1)C(=O)c1cc(C)on1	.	-0.8%	3%	.
Cc1cc(C)n2nc3nc(N4CCCC4)nc(-c4ccccc4)c3c2n1	-14	-5.7%	-14%	2%

Arranged by count of non-hydrogen atoms (rising): part of the list above.
SMILES	GLA inh pH 4.5	Rango complex inh	Rango release inh	miR-21 reporter
COc1cc(C2=NOC(C(=O)Nc3ccc4c(c3)OCO4)C2)cc(OC)c1OC (configuration not stated)	.	0.1%	-13%	-18%
COc1ccc(NC(=O)CSc2ccc3nnc(-c4ccccn4)n3n2)cc1OC	.	-0.1%	-21%	-3%
CN(CCc1ccccc1)C(=O)c1ccc(NC(=O)Cc2ccc(NC(=O)C3CCN(S(=O)(=O)c4cccc([N+](=O)[O-])c4)CC3)cc2)cc1	.	4.6%	-22%	.

Additional entries.
SMILES	GLA inh pH 4.5	Rango complex inh	Rango release inh	miR-21 reporter
O=C(O)/C(=C\c1cccc([N+](=O)[O-])c1)c1ccc(S(=O)(=O)N2CCCCC2)s1	3	-1.8%	1%	-7%
CC(/C=C1\SC(=S)N(C(C(=O)O)C(C)C)C1=O)=C\c1ccccc1 (configuration not stated)	-8	-0.3%	-23%	-12%
CCOCCCNC(=S)Nc1cc(OCC)c(NC(=O)c2ccco2)cc1OCC	6	4.4%	0%	3%
CN(C)S(=O)(=O)c1ccc(N2CCCC2)c(C(=O)N2CCN(S(=O)(=O)c3ccc(F)c(F)c3)CC2)c1	.	?	-8%	.
CC(=O)c1ccc(NS(=O)(=O)c2ccc3c(c2)CCC(=O)N3)cc1	.	-1.1%	10%	.
COc1cc(Cn2cnnn2)ccc1O	-15	-0.3%	1%	0%
COc1ccc(NS(=O)(=O)c2ccc(NC(C)=O)cc2)nn1	.	0.9%	-3%	.
Cc1ccc(NC(=O)CN(C)S(=O)(=O)c2cccc3nsnc23)cc1C	-5	-0.9%	1%	-4%
Cc1ccc(S(=O)(=O)NCC(=O)OCCOc2ccccc2F)cc1	.	3.5%	14%	.
CC1CCC2(CC1)NC(=O)N(CC(=O)NC(C)c1ccc(F)c(F)c1)C2=O (configuration not stated)	.	0.7%	-7%	.
O=C(NCCCN1CCOCC1)c1cc2ccccc2o1	-1	-0.4%	3%	-12%
O=C(Nc1ccccc1)NC1CCN(Cc2nnnn2C2CCCCC2)CC1	0	-0.6%	4%	3%
CC(=O)Nc1ccc(NC(=O)COc2ccc(S(=O)(=O)N3CCCC3)cc2C)cc1	.	-1.6%	-19%	-1%
COc1ccccc1CNC(=S)NCc1ccc(Cl)cc1	.	-0.2%	-9%	-3%
S=C(Nc1ccc(Cl)cc1)Nc1ccc2c(c1)OCCO2	.	3.4%	-14%	-18%
OC(c1ccc2ccccc2n1)c1c(Cl)cccc1Cl (configuration not stated)	.	2.9%	16%	.
Cc1cc2ncn(C(=O)N3CCOCC3)c2cc1C	-6	-0.2%	6%	-9%
COc1ccc(Br)cc1/C=C/C(=O)NC(=S)Nc1ccc(Cl)c(C(=O)O)c1	1	6.1%	0%	0%
Cn1nnnc1Sc1ncnc2scc(-c3cccc(F)c3)c12	.	-0.2%	-19%	.
COc1ccc(S(=O)(=O)N(C)C[C@H]2Oc3ccc(NC(=O)Cc4cn(C)c5ccccc45)cc3C(=O)N([C@@H](C)CO)C[C@@H]2C)cc1	.	-5.4%	-16%	.
Cc1cccc(C)c1NC1=C(Cl)C(=O)OC1OC(=O)c1ccccc1 (configuration not stated)	3	1.7%	1%	-1%
Cc1nnc(NC(=O)C2CC(=O)N(C(C)c3ccccc3)C2)s1 (configuration not stated)	.	-0.3%	7%	1%
CC(=O)Nc1c(O)nc(SCC(=O)N2CCCCC2)[nH]c1=O	.	0.0%	-2%	.
CC1CCc2nc(NC(=O)CCSc3ccccc3)sc2C1 (configuration not stated)	4	-0.3%	1%	-5%

Some entries already given with just Rango complex inh, GLA inh pH 4.5 and miR-21 reporter:
| Compound | Rango complex inh | GLA inh pH 4.5 | miR-21 reporter |
| --- | --- | --- | --- |
| Cc1cc2ncn(C(=O)N3CCOCC3)c2cc1C | -0.2% | -6 | -9% |
| CC(=O)Nc1ccc(NC(=O)COc2ccc(S(=O)(=O)N3CCCC3)cc2C)cc1 | -1.6% | . | -1% |

Additional entries:
SMILES	GLA inh pH 4.5	Rango complex inh	Rango release inh	miR-21 reporter
O=c1c(-c2ccccc2)coc2c(CN3CCOCC3)c(O)ccc12	0	0.9%	-7%	-10%
COc1ccc(NS(=O)(=O)NC(=O)c2c[nH]c3ccccc23)cc1	.	0.5%	?	-5%
CC(=O)c1ccccc1OC(=O)COc1ccc([N+](=O)[O-])cc1	.	5.1%	0%	1%
CN(C)CCCN1C(=O)C2CCc3[nH]c4ccccc4c3C2C1=O (configuration not stated)	-4	?	?	-1%
Cc1cc(-c2nnc(SCC(=O)NC3CCCC3)o2)no1	7	3.8%	-2%	-1%
O=C1COc2ccccc2CN1	-3	0.2%	0%	-9%
Cc1ccccc1SCC(=O)NNC(=O)c1ccncc1	.	-2.5%	-2%	.
CO/N=C(/CS(=O)Cc1ccc(Cl)cc1)c1ccc(Cl)cc1 (configuration not stated)	-8	3.0%	14%	-3%
CCOc1ccccc1NC(=O)N1C2CCCC1CC(NC(=O)C1CC1)C2 (configuration not stated)	3	-0.7%	-5%	-2%
COC(=O)CSc1nc2c(c(-c3ccc(O)cc3)c1C#N)CCCC2	4	2.1%	0%	9%
COc1ccc(NC(=O)c2cc3c(Cl)nc4ccccc4c3s2)c(OC)c1	2	-0.3%	1%	-9%
O=C(CCNS(=O)(=O)c1ccc2[nH]c(=O)oc2c1)NCc1ccccc1	.	-0.8%	-1%	0%
CNC(=O)C1CCC(=O)N1Cc1ccc(C)cc1 (configuration not stated)	4	0.4%	13%	-6%
COC(C(=O)Nc1ccc(C(C)=O)cc1)c1ccccc1 (configuration not stated)	0	1.7%	-5%	-16%
Cc1ccc2nc(-c3ccc(N4C(=N)SC5CS(=O)(=O)CC54)cc3)sc2c1 (configuration not stated)	5	-2.1%	3%	-56%
CSc1ccc(/C=C(\NC(=O)c2ccco2)C(=O)N2CCCCC2)cc1	.	-4.7%	13%	-4%
CCCOC(=O)c1ccc(N2C(=O)c3ccccc3C2=O)cc1	-3	1.9%	0%	-5%
COC(=O)CN1C(=O)[C@H]2[C@@H](c3ccc(C)o3)N3C(=O)CN(CC4CC4)C(=O)[C@@]3(Cc3ccccc3)[C@H]2C1=O	.	?	10%	0%
O=C(c1ccc(N2C(=O)c3ccccc3C2=O)cc1)N1CCCCC1	.	3.3%	12%	-1%
O=C(NCc1cccnc1)c1ccccc1-c1nc(-c2ccccc2)no1	-25	-0.9%	-2%	-1%
COc1cccc(N(CC(=O)NCCSCc2ccco2)S(=O)(=O)c2ccccc2)c1	.	4.3%	-9%	3%
N#C/C(=N\Nc1ccccc1)C(=N)N1CCCCCC1	1	1.4%	-9%	-70%
Nc1ncnc(Sc2ccc(Cl)cc2)c1[N+](=O)[O-]	-10	0.2%	8%	0%
O=C(c1ccccc1Cl)N1CCSCC1	5	0.3%	-6%	5%
CCOC(=O)CC(NC(=O)Cn1nnc(-c2ccccc2)n1)c1ccc(OC)cc1 (configuration not stated)	-4	-3.9%	9%	-6%
COc1cccc(/C=N/NC(=O)c2[nH]nc3c2CCc2ccccc2-3)c1O	-28	3.1%	-16%	16%
CCOC(=O)CN1C(=O)C(CC)Oc2ccc(Cl)cc21 (configuration not stated)	8	13%	4%	1%
O=[N+]([O-])c1ccc(COc2ccc(-c3[nH]ncc3-c3ccc(Cl)cc3)c(O)c2)cc1	1	0.0%	8%	?
CC(=O)Nc1ccc(S(=O)(=O)N2CCSC2c2ccccc2Cl)cc1 (configuration not stated)	-22	-1.7%	2%	6%
O=C(CCN1C(=O)[C@@H]2Cc3ccccc3CN2C1=O)NCCc1ccccc1	.	2.6%	0%	0%
CN(C)c1ccc(Cl)cc1N	-2	-0.5%	0%	-2%
O=C(NCCCN1CCOCC1)c1cc(C(=O)C2CC2)c[nH]1	3	-0.3%	2%	0%
O=C(NCc1ccc2[nH]c3c(c2c1)CCCC3)N1CCOCC1	0	.	.	-5%
C=CCc1cccc(CNc2ccc(S(=O)(=O)Nc3nccnc3OC)cc2)c1O	.	5.0%	5%	3%
CN(C)/C=N/c1c(C#N)cnn1-c1ncnc2sc(-c3ccccc3)cc12	-1	2.2%	-4%	5%
CCC(=O)OC1(C)C(=O)C2=COC(c3ccc(OC)cc3)=CC2=C(Br)C1=O (configuration not stated)	-2&-9	?	?	-6%
C=CCN(CC=C)C(=S)NC(=O)/C=C/c1ccc(C)cc1	3	4.7%	-23%	-25%
COc1ccc(C[C@@H]2CN3C(=NC[C@@H]3C)N2CCNC(=O)c2ccc(C)c(Br)c2)cc1	4	-1.2%	-5%	4%
CCCCCCOc1ccc(C(=O)O)cc1	8	4.2%	-9%	-22%
Cc1ccc(C)c(N2C(=O)CC(Cc3ccc(Cl)cc3)C2=O)c1 (configuration not stated)	.	-1.8%	23%	4%
Cc1c(Cl)cccc1NC(=S)NCCc1ccc(Cl)cc1	.	-2.1%	8%	4%
CCN(CC)S(=O)(=O)c1cc(C(=O)Nc2ccncc2)ccc1Cl	0	-0.3%	-3%	16%
CCOC(=O)CC(=O)CSc1nc(C)nc2c1oc1ccccc12	12	?	-24%	-20%
C#Cc1ccc([C@H]2C=C(C(=O)NCc3ccccc3)O[C@@H](OCc3ccc(CO)cc3)C2)cc1	.	?	1%	.
O=C(Nc1ccc2c(c1)OCO2)c1nn(-c2ccccc2)c(=O)c2ccccc12	-3	-4.1%	27%	1%

Assay outcomes (PubChem BioAssay)
